Vaccinia mCherry – vaccinia inhibition (mCherry reporter) | Vaccinia virus mCherry reporter infection, fluorescence; about a quarter of the inactives have no number | Potency, µM (series often up to 36.5 µM), inactives show top-dose activity change, negative = inhibition, actives largely listed as inhibitors | 0.63% of 310,000 active | AID 720579; active = well fitted inhibition curve with a large enough effect; inconclusive = small, poorly fitted or top-dose-only effect; inactive = no such curve, though single readings can be large or run the other way; tested in A549 cells; further: nearly all actives have a fitted effect of over 35% in size; inactives centre near -10
Vaccinia Venus – inhibitors of vaccinia virus (Venus reporter); Vaccinia virus Venus reporter expression, fluorescence; 0.46% of 330,000 active; AID 720580; Potency, µM (series often up to 36.5 µM), for inactives: at the top dose activity change, negative = inhibition, usual class: inhibitors; active means well fitted inhibition curve with a large enough effect; inconclusive means small, poorly fitted or top-dose-only effect; inactive means no such curve, though single readings can be large or run the other way; tested in A549 cells; further: nearly all actives have a fitted effect of over 30% in size; inactives centre near -10
The depositor's hits bear a star; i = inactive; u = inconclusive; x = no result given; & = joins results of further samples; [ ] = another dose, or the depositor's remark. On the % scale 0 is the no-effect control and ±100 the full control effect; potency means the concentration at half of the fitted maximal effect.

Start of the data: the first four records, ahead of the listing:
SMILES | Vaccinia mCherry | Vaccinia Venus
CNS(=O)(=O)c1cnccc1N1CCN(C)CC1 | -14.5% | -8.5%
COc1ccc(NC(=O)c2cccc(S(=O)(=O)N3CCCCCC3)c2)cc1 | i | -3.6%
COc1ccc(OC)c(C(c2nnnn2C2CCCC2)N2CCc3ccccc3C2)c1 (stereo not given) | x | u
O=C(NCCn1cc(SCc2ccccc2F)c2ccccc21)c1c(F)cccc1F | -21.0% | -20.3%

The listing, from the start:
SMILES | Vaccinia mCherry | Vaccinia Venus
CNS(=O)(=O)c1cnccc1N1CCN(C)CC1 | -14.5% | -8.5%
COc1ccc(NC(=O)c2cccc(S(=O)(=O)N3CCCCCC3)c2)cc1 | i | -3.6%
COc1ccc(OC)c(C(c2nnnn2C2CCCC2)N2CCc3ccccc3C2)c1 (stereo not given) | x | u
O=C(NCCn1cc(SCc2ccccc2F)c2ccccc21)c1c(F)cccc1F | -21.0% | -20.3%
COc1ccc(/C=N/NC(=O)C(=O)NCc2cccnc2)cc1OC | x | u
CCOC(=O)N1CCN(C(=O)c2ccc(OC(C)=O)cc2)CC1 | 1.3% | -7.3%
COc1ccc(C(=O)CC(CC(=O)c2ccc(OC)cc2)C(=O)O)cc1 | i | -2.1%
Cc1ccc(S(=O)(=O)N2[C@@H](c3ccc(Cl)cc3)C(C(=O)O)=CC[C@H]2c2ccc3c(c2)OCO3)cc1 | -17.9% | -9.6%
Cc1ccccc1NC(=O)c1ccc2c(c1)N(C)CCS2 | -16.2% | -4.4%
CC1=NN(c2ccc(C)cc2C)C(=O)C1C(c1cccc(O)c1)C1C(=O)N(c2ccc(C)cc2C)N=C1C (stereo not given) | -6.6% | -12.9%
C[C@]12c3[nH]c4ccccc4c3CCN1C(=O)C(CC(=O)NCCC1=CCCCC1)C[C@@H]2C(=O)N1CCCCC1 (stereo not given in full) | u | -23.4%
CCN(CC)CCN=CC1=C(O)CNC1=O | -14.3% | -7.9%
COC(=O)CN(c1ccc(F)cc1)S(=O)(=O)c1ccccc1 | i | -13.5%
O=C(NCCCc1ccccc1)C1CCN(C(=O)N2CCOc3ccc(Cl)cc32)CC1 | -8.8% | -17.3%
CC1(C)CC(=O)/C(=C(\O)CCCN2C(=O)c3ccccc3C2=O)C(=NCC(=O)O)C1 | i | -15.8%
CC1=Nc2ccc(C)cc2N(Cc2ccccc2)C(=O)C1 | -13.4% | -10.7%
CN(C)CCN(Cc1ccco1)c1ccccn1 | i | 8.5%
CCN1C(=O)[C@H]2[C@@H](c3ccc(C(F)(F)F)cc3)N[C@]3(CCCN(Cc4ccc(C(F)(F)F)cc4)C3=O)[C@H]2C1=O | -29.5% | u
Cc1ccc(-c2noc(C3CCCN(C(=O)C4CCCCC4)C3)n2)o1 (stereo not given) | i | -10.0%
Cc1ccc(S(=O)(=O)/N=C2/NC(=O)/C(=C\c3ccccc3)S2)cc1 | -11.7% | -1.3%
CCCCc1ccc(NC(=O)c2cc(-c3ccc(C)c(F)c3)on2)cc1 | 6.8% | 8.5%
N#CCCn1nc(-c2ccccc2)cc1Nc1ccccc1NC(=O)c1cccs1 | -12.6% | -11.1%
Cc1ccc(OCCC(=O)OCC(=O)NC(=O)NC2CCCC2)cc1 | -10.6% | 4.3%
CCCCCCCC1(C)NC(=O)NC1=O (stereo not given) | -24.4% | -8.2%
O=C(c1cccnc1Nc1ccccc1F)N1CCOCC1 | i | -14.1%

Later entries
SMILES | Vaccinia mCherry | Vaccinia Venus
COc1ccccc1CNC(=O)c1cc(-c2cccnc2)nc2ccccc12 | i | -18.5%
CCOC(=O)C1CCCN(C(=O)c2csc(-c3ccc4c(c3)CCO4)n2)C1 (stereo not given) | -27.1% | -14.4%
CNC(=O)COC(=O)c1cc2c(s1)CCCC2 | i | -8.3%
CCOc1ccc(NC(=O)CN(C)C(=O)c2ccc(-c3ccc(C(C)=O)cc3)o2)cc1OCC | -20.2% | -12.3%
CN(C1CCCCC1)S(=O)(=O)c1ccc2c(c1)c(=O)c(C(=O)NCCc1ccccc1)cn2C | -13.2% | 1.5%
COc1ccc(NC(=O)C2CCCN2S(=O)(=O)c2cccc3cccnc23)c(OC)c1 (stereo not given) | 10.4% | -5.9%
COc1cc(OC)c(N(C)C(=O)c2cn(C3CCCC3)c(=O)c3c2c2ccccc2n3C)cc1Cl | -22.5% | -24.3%
CCOC(=O)C1Cc2ccccc2C(=O)O1 (stereo not given) | i | -5.6%
Cc1cccc(C)c1-n1c(C)cc(/C=N/NC(=O)CSc2ncccn2)c1C | i | -10.8%
COC(=O)Cn1c2ccccc2c2nc(=O)cc(C)n21 | i | 0.3%
COc1ccc(Nc2cc(C(=O)NCCc3ccccc3)c3ccccc3n2)cc1OC | -7.6% | -1.0%
CC1C(=O)N(Cc2cn(CCC3OCCO3)nn2)CCS(=O)(=O)N1Cc1ccc(-c2ccccc2)cc1 (stereo not given) | -17.8% | -24.2%
C[C@H](CO)N1C[C@H](C)[C@H](CN(C)C(=O)Nc2ccc(F)cc2)Oc2ccc(NC(=O)NC3CCCCC3)cc2CC1=O | i | -8.8%
COc1cc(/C=C(\C#N)C(=O)NCC2CCCO2)ccc1O (stereo not given) | -5.7%&-16.2% | 0.7%&-11.1%
Cc1cccc(C(=O)NCC(=O)NCC(c2ccco2)N2CCCCC2)c1 (stereo not given) | i | -4.2%
CCOc1cc(/C=C(/C#N)c2nc3ccccc3[nH]2)ccc1Oc1ccc([N+](=O)[O-])cn1 | i | -24.1%
O=c1c2sccc2n(Cc2cc(=O)n3ccccc3n2)c(=O)n1-c1cc(F)ccc1F | -17.9% | -17.0%
CC(C)CCC1(CCNC(C)c2cccs2)CCOC(C)(C)C1 (stereo not given) | u | -23.7%
Cc1ccc(CN2C(=O)N(c3ccc(C)c(Cl)c3)S(=O)(=O)c3ccccc32)cc1 | -22.2% | -16.6%
Cc1ccc(C(=O)Nc2ccc(S(=O)(=O)N3CCOCC3)cc2)cc1Br | i | -16.4%
CCN(CC(=O)NCc1ccc(Cl)cc1)C(=O)c1cc(S(=O)(=O)N2CCOCC2)ccc1C | -21.8% | -16.8%
COc1cccc(C2/C(=C(/O)c3ccc(F)cc3)C(=O)C(=O)N2CCN(C)C)c1 (stereo not given) | i | -5.9%
COc1cccc(-c2nn3c(-c4cc(C)[nH]n4)nnc3s2)c1 | -22.8%&8.7% | -17.7%&-14.7%
CC(CNC(=O)Cn1ccc(NC(=O)OCc2ccccc2)nc1=O)c1ccccc1 (stereo not given) | -7.6% | -2.8%
O=C(NCc1ccc(Cl)cc1)c1ccc(COCC(F)(F)F)o1 | -14.9% | -6.9%

Profiles, looked up by structure. Order of screens: Vaccinia mCherry | Vaccinia Venus
Cc1cccc(C(=O)NCC(=O)NCC(c2ccco2)N2CCCCC2)c1 (stereo not given) as listed: i | -4.2%
COc1ccc(NC(=O)C2CCCN2S(=O)(=O)c2cccc3cccnc23)c(OC)c1 (stereo not given) as listed: 10.4% | -5.9%
COC(=O)Cn1c2ccccc2c2nc(=O)cc(C)n21 as listed: i | 0.3%
O=C(NCc1ccc(Cl)cc1)c1ccc(COCC(F)(F)F)o1 as listed: -14.9% | -6.9%
CN(C1CCCCC1)S(=O)(=O)c1ccc2c(c1)c(=O)c(C(=O)NCCc1ccccc1)cn2C as listed: -13.2% | 1.5%

More entries follow.
SMILES | Vaccinia mCherry | Vaccinia Venus
O=C1CC2(CCCC2)Oc2ccc(F)cc21 | i | -17.6%
Oc1ccc(/C=C/c2cnccn2)cc1 | -26.9% | -3.3%
COc1ccc(N=Cc2c(O)n(Cc3ccccc3)c(=S)[nH]c2=O)c(OC)c1 | -1.3% | -9.3%
O=C1/C(=C/c2ccc(N3CCOCC3)o2)SC(=Nc2ccccc2)N1CCc1c[nH]c2ccccc12 | u | 19.5%
Cc1c(O)cc(O)c2c(=O)c(-c3ccc(O)cc3)coc12 | -1.8% | -17.6%
Cc1nn(C(C)(C)C)c(OC(=O)C2CCCC2)c1S(=O)(=O)c1ccccc1 | x | -24.0%
CCCCC1=CC2=CC(=O)C(C)(OC(=O)CC)C(=O)C2=CN1CCc1ccccn1 (stereo not given) | i | -14.5%
Cc1ccc(CN2CCc3nc(N4CCN(C)CC4)ncc3C2)cc1 | -7.1% | -20.9%
Cc1ccc(C)c(N2CCN(c3nc4ccccc4c4nc(-c5cccnc5)nn34)CC2)c1 | -19.6% | 3.3%
Nc1ccc(NC(=O)NC2CCCCC2)cc1[N+](=O)[O-] | -3.0% | -15.8%
Cc1ccc(CNC(=O)C2COc3ccccc3C2)cc1 (stereo not given) | -12.7% | -11.4%[7.34 µM]
O=C(Cn1c(=O)n(Cc2ccco2)c(=O)c2ccccc21)Nc1cccc(F)c1 | -5.4% | 7.6%
O=C1CC(SC(=Nc2ccccc2)Nc2ccccc2)C(=O)N1c1cccc(Cl)c1 (stereo not given) | x | -15.6%
CCOc1ccc(C(=O)N(Cc2ccc(N(C)C)cc2)C2CCS(=O)(=O)C2)cc1 (stereo not given) | -12.8% | 2.8%
Cc1snc(S(=O)(=O)/C(C#N)=N/Nc2ccc(C(F)(F)F)cc2)c1C#N | -3.5%[1.46 µM] | -4.3%
CC(=O)c1ccc(NC(=O)COC(=O)c2nc(Cl)ccc2Cl)cc1 | i | -2.2%
CCc1cc(=O)oc2c(C)c(OCC(=O)N3CCC(C(=O)O)CC3)ccc12 | 2.0% | -2.1%
Cc1ccc(NC(=O)CN2C(=O)C(c3ccc(F)cc3)=NC2(C)C)c(C)c1 | i | -3.0%
Cc1cccc(C(=O)N2c3ncnn3C3(CCCCC3)[C@@H]3CCCC[C@@H]32)c1 | -14.4% | -9.6%
Clc1cccc(-c2nc3c4ccccc4ccn3c2Cc2ccsc2)c1 | 30.5%[activator] | 1.0%
Cc1cc(C)c(S(N)(=O)=O)c(C)c1-n1cnnn1 | -3.6% | -7.0%
CCOc1ccc(NC(=O)CN2C(=O)NC(CCSC)C2=O)cc1 (stereo not given) | -9.5% | -16.6%
COc1cc(C(C)=O)ccc1OCC(=O)Nc1cc(C)on1 | -20.8% | -12.0%
CCN(CC)CCNC(=O)C1CCCN(c2nnc(C)c3c(C)n(-c4ccc(Cl)cc4)nc23)C1 (stereo not given) | -27.9% | -22.4%
COc1ccccc1C(=O)Nc1ccc2nc(SCC(=O)N(C)C)sc2c1 | u | -19.1%

Molecules listed so far with a furan ring, fused or not:
SMILES | Vaccinia mCherry | Vaccinia Venus
CN(C)CCN(Cc1ccco1)c1ccccn1 | i | 8.5%
Cc1ccc(-c2noc(C3CCCN(C(=O)C4CCCCC4)C3)n2)o1 (stereo not given) | i | -10.0%
CCOc1ccc(NC(=O)CN(C)C(=O)c2ccc(-c3ccc(C(C)=O)cc3)o2)cc1OCC | -20.2% | -12.3%
Cc1cccc(C(=O)NCC(=O)NCC(c2ccco2)N2CCCCC2)c1 (stereo not given) | i | -4.2%
O=C(NCc1ccc(Cl)cc1)c1ccc(COCC(F)(F)F)o1 | -14.9% | -6.9%
O=C1/C(=C/c2ccc(N3CCOCC3)o2)SC(=Nc2ccccc2)N1CCc1c[nH]c2ccccc12 | u | 19.5%
O=C(Cn1c(=O)n(Cc2ccco2)c(=O)c2ccccc21)Nc1cccc(F)c1 | -5.4% | 7.6%

Remaining list, next part.
SMILES | Vaccinia mCherry | Vaccinia Venus
C[C@@]12C(=O)OC(=O)[C@]1(C)C1CCC2O1 | 1.12µM* | 1.26µM*
COc1ccc(CCNS(=O)(=O)c2ccc(N3CCCCS3(=O)=O)cc2)cc1 | -15.4% | -11.2%
COc1cc2c(cc1OC)CN(c1nc(-c3cccnc3)nc3ccccc13)CC2 | -25.3% | -29.8%
O=C(NCc1ccc(F)cc1)c1cc2ccccn2n1 | 7.0% | -1.5%
Cc1cccc(C)c1NC(=O)C1CCN(S(=O)(=O)c2cccc3nsnc23)CC1 | 8.3% | 1.8%
CCCCCOc1ccc(C(=O)OCC(=O)Nc2cc(C)c(C)cc2[N+](=O)[O-])cc1 | -20.6% | -11.8%
CCc1noc(C)c1C(=O)Nc1nc2ccc(OC)cc2s1 | i | -12.5%
O=C(O)c1ccccc1Nc1ccc([N+](=O)[O-])cc1C(=O)O | -18.6%[7.34 µM] | -4.2%[7.34 µM]
O=C(Nc1nc(-c2cccs2)cs1)c1ccc(Cl)s1 | i | -23.9%
CC1=C(C(=O)OCc2ccccc2)C(c2ccccc2)NC(=O)N1CCCC(=O)O (stereo not given) | -4.2% | -0.2%
Cc1cc(C(=O)O)c(C)n1C1CC1 | -11.1% | -25.5%
CN(Cc1nc(-c2cccnc2)no1)S(=O)(=O)c1ccc2ccccc2c1 | i | -4.8%
COc1cccc(C(C(=O)NCc2ccco2)N(Cc2ccco2)C(=O)Cn2nnc3ccccc32)c1 (stereo not given) | x | -21.2%
O=C(NCc1nc(-c2ccccc2)no1)Nc1ccc(F)cc1 | -14.4% | -17.5%
O=C(CSc1ccc(-c2ccco2)nn1)c1ccccc1 | -7.7% | -11.5%

Compound activity as filed in PubChem BioAssay.
